VDR inh – inhibitors of human vitamin D receptor | Potency, µM, inactives show max response, negative = inhibition, hits mostly inhibitors | 400,000 tested, 0.93% active | P11473 | VDR-SRC2-3 peptide fluorescence polarization, 2 h; active = well fitted inhibition curve with a large enough effect; inconclusive = small, poorly fitted or top-dose-only effect, or another doubt; inactive = no such curve, though single readings can be large or run the other way; note: series mostly up to about 120 µM
Target sequence (P11473 whole entry, looked up): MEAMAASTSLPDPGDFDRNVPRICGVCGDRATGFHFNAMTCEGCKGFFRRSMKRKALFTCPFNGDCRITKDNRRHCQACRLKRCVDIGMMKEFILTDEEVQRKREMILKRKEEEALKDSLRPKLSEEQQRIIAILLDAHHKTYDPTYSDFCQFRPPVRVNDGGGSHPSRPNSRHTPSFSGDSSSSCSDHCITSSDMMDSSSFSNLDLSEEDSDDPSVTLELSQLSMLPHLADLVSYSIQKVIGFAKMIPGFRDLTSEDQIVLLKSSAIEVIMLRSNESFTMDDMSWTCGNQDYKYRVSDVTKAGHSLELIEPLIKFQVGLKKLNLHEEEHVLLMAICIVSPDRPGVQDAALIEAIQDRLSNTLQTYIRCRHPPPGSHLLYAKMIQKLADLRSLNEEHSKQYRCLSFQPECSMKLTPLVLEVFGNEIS
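Fluorescence polarization assay measuring small-molecule disruption of VDR binding to the coregulator peptide SRC2-3. Compounds were pin-transferred (23 nl) into the reagent mix and incubated 2 h at room temperature before reading.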
* hit, by the source's call; ? = inconclusive; & = joins results of further samples. % is set by controls: 0 for no effect and ±100 for the full control effect; potency is the fitted concentration of half-maximal effect. A portion of the library; the hit share may differ from the screen's.

entry	SMILES	VDR inh
1	S=c1[nH]nc(-c2cc(-c3ccccc3)n[nH]2)n1/N=C/c1c(Cl)cccc1Cl	-2.0%
2	COC(=O)CSc1nnc(CNC(=O)c2ccc(S(=O)(=O)N(C)C)cc2)n1C	-4.8%
3	COc1ccc(-c2cn3c4c(sc3n2)CCCC4)cc1	9.4%
4	COc1ccc(C(=O)COC(=O)C2CCN(S(=O)(=O)c3cccc4cccnc34)CC2)cc1	-1.8%
5	C[N+](C)(C)CCC(=O)N1C/C(=C/c2ccccc2)C(=O)/C(=C\c2ccccc2)C1	79.4µM*
6	Nc1cc(Oc2cccnc2)cc([N+](=O)[O-])c1	-14.0%
7	CN(C)C(=O)c1cn(-c2ccccc2)c(=O)c2ccccc12	-11.4%
8	O=C(NCCC(c1ccccc1)c1ccccc1)c1cnc2sccn2c1=O	-13.5%
9	O=C(NNC(=O)c1cccc(Br)c1)Nc1ccc(Cl)cc1	?
10	CCCCNC(=O)NS(=O)(=O)c1cnccc1Sc1ccc(Cl)cc1	-9.9%
11	CCN1CCN(C(=S)c2ccc(OC)cc2)CC1	-0.3%
12	CS(=O)(=O)N1c2ccccc2[C@@]2(Br)C[C@H]3C(=O)N[C@@H](Cc4ccccc4)C(=O)N3[C@@H]12	7.4%
13	C[C@H](CO)N1C[C@H](C)[C@@H](CN(C)Cc2ccc(Oc3ccccc3)cc2)Oc2c(NC(=O)C3CC3)cccc2C1=O	7.3%
14	Cc1csc(NC(=O)c2ccc(S(=O)(=O)N(C)c3ccccc3)cc2)n1	7.6%
15	COc1ccccc1-c1nc2ccc(Cl)cc2c(=O)n1O	-7.7%
16	Cc1cc(C)cc(CSCC(=O)N/N=C/c2ccc(OCC(=O)NCc3ccco3)cc2)c1	0.1%
17	C[C@@H](C(=O)CC(=O)OC(C)(C)C)[C@@H](O)c1c(F)cccc1Cl	-3.6%&-7.8%
18	C=CCN1CCN(C(=O)CCCc2ccccc2)CC1	-2.0%
19	CN(C)CCCN1C(=O)c2cccc3c(Br)ccc(c23)C1=O	-12.1%
20	O=C(Nc1cc([N+](=O)[O-])ccc1F)C1CC1	-14.7%
21	O=C(Nc1ccc(O)c(-c2nc3ccccc3o2)c1)C1(c2ccc(Cl)cc2)CCCC1	-7.4%
22	O=C(Nc1nccs1)c1ccc(Br)cc1	-1.2%
23	Cc1ccc(NC(=O)Cc2nnc(SCC(=O)NC3CCCC3)n2C)cc1C	0.8%
24	NCCNc1cc(N2CCCC2)ccc1[N+](=O)[O-]	-4.8%
25	Cc1ccc2[nH]cc(C(c3ccccc3)c3ccc(Cl)s3)c2c1 (centres undefined)	-24.7%
26	CC1CN(C(=O)c2cccc(S(=O)(=O)NCc3ccccc3)c2)CC(C)O1 (centres undefined)	-13.8%
27	CCCCN(CCCC)CC(O)Cn1cc(/C=C/C(=O)c2ccccc2)c2ccccc21 (centres undefined)	11.9%
28	CCS(=O)(=O)c1nc2ccccc2n1CC(=O)Nc1ccccc1C(=O)OC	6.5%
29	COc1ccc(/C=C/C(=O)N2CCC(C(N)=O)CC2)cc1S(=O)(=O)N1CCOCC1	2.1%
30	CC(C)Oc1ccc(S(=O)(=O)N2CCOCC2)cc1NC(=O)C1CCC1	0.0%
31	CC(C)c1ccc(NC(=O)c2cc3c(=O)n(C)c4ccccc4c3n2C)cc1	8.7%
32	CC1=C(C(=O)Nc2ccc(C)cc2C)C(c2ccccc2)n2ncc(C(=O)Nc3ccccc3)c2N1 (centres undefined)	-1.3%
33	Cc1oc(C)c(C(=O)Nc2ccccc2)c1C	6.5%
34	COCCNC(=O)c1cn(C)c2ccc(S(=O)(=O)N3CCCCC3)cc2c1=O	6.2%
35	COc1ccccc1OCC(=O)Nc1cc(NC(=O)COc2ccccc2OC)cc(C(=O)O)c1	6.8%
36	COC(=O)c1ccc(COc2ccccc2OC)o1	-21.1%
37	O=C(CCC(=O)N1CCN(c2ccc(O)cc2)CC1)c1cccs1	11.6%
38	O=C1c2ccccc2C(Nc2ccc3c(c2)OCCO3)N1c1ccc(Cl)cn1 (centres undefined)	-5.9%
39	COc1cc(CN2CCCC(N3CCN(c4ccccc4C)CC3)C2)ccc1O (centres undefined)	-15.5%
40	CCN(C(=O)c1ccncc1)c1c(N)n(Cc2ccccc2)c(=O)[nH]c1=O	-0.6%

Marked active in VDR inh (from the list above):
entry	SMILES	VDR inh
5	C[N+](C)(C)CCC(=O)N1C/C(=C/c2ccccc2)C(=O)/C(=C\c2ccccc2)C1	79.4µM*

The list goes on.
entry	SMILES	VDR inh
41	CCN(CC(=O)NCc1cccs1)C(=O)c1ccc(S(=O)(=O)Nc2ccccc2F)cc1	22.3%
42	Cc1ccc(S(=O)(=O)N2CCC(C(=O)NCc3ccccc3CN3CCCC3)CC2)cc1	0.5%
43	Cc1ccc(-c2cc(=O)[nH][nH]2)c(C)c1	1.1%
44	CC(C)c1ccc(S(=O)(=O)N2CCN(C(=O)Cc3ccsc3)CC2)cc1	-1.9%
45	COc1ccc(N2CCN(C(c3ccccc3)c3nnnn3C(C)C)CC2)cc1 (centres undefined)	-9.6%
46	CCOC(=O)c1c(NC(=O)COC(=O)c2cnccn2)sc(C(=O)NC)c1C	-14.6%
47	CN(C)/C=C/c1c([N+](=O)[O-])c2ccc(O)cc2n1-c1ccccc1	?
48	COc1ccc(C(=O)Nc2cccc(C(=O)NCc3ccco3)c2)cc1	-17.2%
49	CC1CCCCN1Cc1c(O)ccc2c(=O)c(-c3nc4ccccc4s3)c(N)oc12 (centres undefined)	5.5%
50	Cc1nc(NC(=O)c2ccccc2)nc2cc3c(cc12)OCO3	-19.4%
51	CC(=O)c1ccc(N2CCN(CC(=O)NCc3ccccc3)CC2)cc1	-5.8%
52	O=[N+]([O-])c1ccc(-n2cc(-c3ccccc3)nn2)cc1	-3.7%
53	COc1ccc(/C=C/C(=O)NCC(=O)N/N=C(/CCC(=O)O)c2ccccc2)cc1	1.7%
54	Cc1cc2c(c(=O)n1Cc1cccnc1)C(c1cccs1)C(C#N)=C(N)O2 (centres undefined)	-25.3%
55	CCCC1=NN(C(=O)Cc2ccc(OC)cc2)C(O)(C(F)(F)F)C1 (centres undefined)	2.6%
56	CN1CCN(Cc2cc(=O)oc3cc4c(cc23)CCC4)CC1	-3.5%
57	COc1ccc(C(=O)n2nc(N)c3cc4ccc(C)cc4nc32)cc1OC	-21.5%
58	Cc1cc(C)c(OCC(=O)NCC(C)(C)N2CCOCC2)c(C)c1	9.2%
59	COc1ccc([N+](=O)[O-])cc1NC(=O)CCN1CCN(c2ccccc2)CC1	5.4%
60	NNC(=O)C1CC1c1ccc(Cl)cc1 (centres undefined)	-10.5%
61	Cc1c(C(=O)N2CCC(C)CC2)c(S(=O)(=O)NCc2ccc(Cl)cc2)c(C)n1C	-0.4%
62	Cc1ccccc1CN1c2ccccc2-c2nc(SCC(=O)c3ccc(Cl)cc3)ncc2S1(=O)=O	4.4%
63	O=C(CC1CCCCC1)c1c(O)c2ccccc2oc1=O	-10.5%
64	O=C1c2ccccc2C(=O)N1OCc1c(F)cccc1Cl	15.2%
65	COc1ccc(Cl)cc1NC(=S)NCCC(c1ccccc1)c1ccccc1	-24.4%
66	Cc1cccc(NS(=O)(=O)c2ccc(-c3ccc(=O)[nH]n3)o2)c1	-2.9%
67	CCOc1ccc(/C=C2\SC(=S)N(Nc3ccccc3)C2=O)cc1OC	-10.1%
68	CCOc1cc(/C=N/NC(=O)c2cccnc2)ccc1OCC(=O)N(C)C	?
69	O=C(NC1CCN(Cc2ccccc2)CC1)c1ccc(N2CC3CC(C2)c2cccc(=O)n2C3)c([N+](=O)[O-])c1 (centres undefined)	-9.7%
70	COc1ccccc1NS(=O)(=O)c1cccc(C(=O)NCC(c2ccccc2OC)N2CCCC2)c1 (centres undefined)	-10.0%
71	c1ccc(OCc2nnc3n2CCCCC3)cc1	6.7%
72	Cc1ccc(C(=O)OCC(=O)Nc2sc3c(c2C#N)CCCCC3)cc1NC(=O)c1ccco1	17.9%
73	COc1ccc(NC(=O)CN2C(=O)COc3ccc(S(=O)(=O)N4CCCCC4)cc32)cc1OC	-3.3%&-2.7%
74	CCCc1nnc(NC(=O)c2nc(S(=O)(=O)Cc3ccc(C)cc3)ncc2Cl)s1	28.2µM*
75	CCOC(=O)N1CCN(C(=O)Cn2cnc3ccccc3c2=O)CC1	-17.9%
76	Cc1ccc(NC(=O)c2ccc(N3CCOCC3)c([N+](=O)[O-])c2)cc1S(=O)(=O)N1CCOCC1	-9.3%
77	Cc1ccc(C)c(S(=O)(=O)N2CCN(C(=O)c3ccc(-n4cncn4)c([N+](=O)[O-])c3)CC2)c1	-20.5%
78	CCNc1nc(-c2ccc(OC(F)F)cc2)c(C)s1	1.9%
79	CCOC(=O)C1=C(C)C2C3C(=O)N(c4cc(C)ccc4C)C(=O)C3C1(C)C1C(=O)N(c3cc(C)ccc3C)C(=O)C21 (centres undefined)	-11.2%
80	Cc1nc2c(C)cccn2c(=O)c1NC(=O)c1ccc2c(c1)OCO2	8.5%
81	C=CCn1cnnc1SCC(=O)NCC1COc2ccccc2O1 (centres undefined)	-16.5%
82	CCC(C)C(=O)Nc1nccs1 (centres undefined)	11.5%
83	CC(C)(C)c1ccc(C(=O)N/C(=C\c2cccs2)C(=O)NCc2ccco2)cc1	9.9%
84	COc1ccc(CN2CNc3nc4ccccc4n3C2)cc1	-18.8%
85	CS(=O)(=O)N1CCCC(C(=O)NCc2cccs2)C1 (centres undefined)	-4.1%
86	Cn1c(C(=O)N(Cc2ccccc2)Cc2ccccn2)cc2sccc21	-2.1%
87	Cc1nn(C(C)C(=O)NC2CCC(C)CC2)c(=O)c2cc3sccc3n12 (centres undefined)	-10.3%
88	COc1ccc(C2=NN(C(=O)CSc3cn(C)c4ccccc34)C(c3ccc(OC)cc3)C2)cc1 (centres undefined)	-9.2%
89	CCOc1c(OC(C)=O)ccc(/C=C/c2ccc3cccc(OC(C)=O)c3n2)c1[N+](=O)[O-]	15.3%
90	O=C1CCC(C(=O)N2CCCCO2)CN1Cc1cccc(C(F)(F)F)c1 (centres undefined)	-4.6%

Continued.
entry	SMILES	VDR inh
91	Cc1cc(NS(=O)(=O)c2ccccc2)n(-c2ccccc2)n1	2.9%
92	CC(C)Oc1ccc(C(CC(=O)O)NC(=O)Cc2ccccc2)cc1 (centres undefined)	22.6%
93	COc1ccc2oc(C(=O)OCC(=O)Nc3ccccc3OC)c(C)c2c1	-10.5%
94	O=C(NNc1cccc([N+](=O)[O-])c1)/C(=C\c1cccnc1)NC(=O)c1ccccc1	-23.9%
95	CN(C(=O)NC1CC(=O)N(c2ccc3c(c2)OCCO3)C1)c1ccccc1 (centres undefined)	-17.4%
96	COc1ccccc1-n1cnc2cc(C(=O)NCc3ccco3)ccc21	-0.6%
97	O=C(NC1CCCCNC1=O)c1ccc(Cl)cc1 (centres undefined)	12.0%
98	COc1ccccc1CCNC(=O)CSc1nnc2ccc(-c3cccnc3)nn12	-4.0%
99	CCN(CCO)c1ncnc2c1sc1nc(C(C)C)c3c(c12)CC(C)(C)OC3	23.6%
100	CCn1cc(C(=O)O)c(=O)c2cc(F)c(N3CCN(C(=S)NC(=O)c4ccccc4Cl)CC3)cc21	-13.0%
101	O=C(Nc1cccc(O)c1)C1CC(c2ccc(Cl)cc2)=NO1 (centres undefined)	-3.8%
102	COc1ccccc1/C=C/C=N/n1c(-c2ccc(Cl)cc2Cl)n[nH]c1=S	0.8%
103	COc1ccc(C(=O)N2CCCC(c3nc(-c4cccs4)no3)C2)cc1OC (centres undefined)	10.6%
104	CCC(=O)Nc1ccc(NC(=O)c2ccccc2)nc1	-15.8%
105	O=C(Nc1sc2c(c1C(=O)O)CCCC2)c1ccccc1Cl	1.8%
106	COCCN(C(=O)c1ccccc1Oc1ccccc1)c1c(N)n(CC(C)C)c(=O)[nH]c1=O	3.7%
107	O=C1NC2(CCSC2)C(=O)N1CC(=O)N(Cc1ccccc1)C1CCS(=O)(=O)C1 (centres undefined)	9.8%
108	COc1ccc(C(C(=O)NCc2ccccc2)N(C(=O)c2snc(C(N)=O)c2N)C2CCCC2)cc1 (centres undefined)	-9.0%
109	NS(=O)(=O)c1ccc(CCNS(=O)(=O)Cc2ccc(Cl)cc2)cc1	3.9%
110	CCn1ccnc1CN(C)C(=O)C1CCC(=O)N(Cc2cccc(F)c2)C1 (centres undefined)	-12.4%
111	O=C(CCN1CCc2ccccc2C(O)(c2ccccc2)C1)c1ccc2c(c1)OCCO2 (centres undefined)	35.5µM*
112	COc1cccc(/C=N/NC(=O)CCC(=O)Nc2ccc(Br)cc2)c1	-18.1%
113	CN(C)S(=O)(=O)c1ccc(C(=O)Nc2nnc(-c3cccs3)o2)cc1	-10.1%
114	CC(=O)N1CCOc2ccc(S(=O)(=O)N(C)c3ccc(C)cc3)cc21	-17.8%
115	Cc1ccc(C(=O)Nc2ncccc2C)cc1S(=O)(=O)N1CCCCC1	11.2%
116	O=C(COC(=O)COc1ccccc1[N+](=O)[O-])Nc1ccccc1Br	1.4%
117	COC(=O)c1c(NC(=O)c2ccco2)sc(C(=O)N(C)C)c1C	-7.7%
118	O=C(c1cnccn1)N1CCC[C@@]2(CCN(C(c3ccccc3)c3ccccc3)C2)C1	-4.7%
119	Cc1cc(C)c(N(C(=O)c2csnn2)C(C(=O)NC2CCCC2)c2ccncc2)c(C)c1 (centres undefined)	-3.6%
120	COc1cccc(CC(=O)N(CCC2=CCCCC2)c2c(N)n(Cc3ccccc3)c(=O)[nH]c2=O)c1	-17.5%

Reprinted from the part before: 2 entries, followed by the next part.
entry	SMILES	VDR inh
119	Cc1cc(C)c(N(C(=O)c2csnn2)C(C(=O)NC2CCCC2)c2ccncc2)c(C)c1 (centres undefined)	-3.6%
120	COc1cccc(CC(=O)N(CCC2=CCCCC2)c2c(N)n(Cc3ccccc3)c(=O)[nH]c2=O)c1	-17.5%
121	Cc1ccc(NC(=O)/C(C#N)=C/c2ccccc2Cl)cc1C	?
122	COc1ccc(C(=O)NNC(=S)NC(=O)/C=C/c2cccs2)cc1	17.2%
123	COc1ccc(-c2[nH]ncc2CN2CCC(OCc3ccccc3)CC2)c(F)c1	2.2%
124	COC(C[C@@H]1O[C@@H]1[C@H](O)COCc1ccccc1)OC	-14.6%
